# High-throughput results as filed in PubChem.
# FGF22 binding = binders of human FGF22 protein, primary screen, FGF22 synaptogenesis inhibitor project, biophysical, thermal shift, single point; Fibroblast growth factor 22 (Homo sapiens), Q9HCT0; 340,000 compounds, 1.5% hits; calls only at 9.99 µM; recombinant FGF22 thermal shift, SYPRO orange fluorescence; percent of sucrose octasulfate shift, DMSO zero;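 active means melting point raised past a set limit in the mean and every replicate; three in four hits are not shown here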
# UCH37 inh = inhibitors of human UCH37 deubiquitinase, primary screen, biochemical, Ub-AMC cleavage, fluorescence; AID 588478, 2011; 330,000 compounds, 0.33% hits; purified proteasome/UCH37; Ubiquitin carboxyl-terminal hydrolase isozyme L5 (Homo sapiens), Q9Y5K5; inhibition, % (no concentration beside the values);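 active means mean of two replicates above 20%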;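 further: 0% = compound-free wells with enzyme and 100% = wells lacking proteasome; stock transfer was 100 nL into about 20 µL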
# Target sequence (Q9Y5K5 whole entry, looked up): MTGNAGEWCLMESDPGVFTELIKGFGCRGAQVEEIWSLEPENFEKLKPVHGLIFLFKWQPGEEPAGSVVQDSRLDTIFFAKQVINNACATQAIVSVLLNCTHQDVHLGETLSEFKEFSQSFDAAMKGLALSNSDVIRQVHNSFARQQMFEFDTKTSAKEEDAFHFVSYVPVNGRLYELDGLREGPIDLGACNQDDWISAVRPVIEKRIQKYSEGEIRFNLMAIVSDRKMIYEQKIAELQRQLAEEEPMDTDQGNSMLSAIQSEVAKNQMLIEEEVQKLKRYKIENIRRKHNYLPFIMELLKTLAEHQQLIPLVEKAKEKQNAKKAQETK
#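 Schedule: 30 min plus 25 min, room temperature / Material: human UCH37 within purified proteasomes / Technique: AMC fluorescence intensity at 355/460 nm / Buffer or medium: pH 7.4 Tris-HCl (50 mM) with ovalbumin, ATP-MgCl2, DTT / Controls: wells without proteasome as full block, compound-free enzyme plus substrate as uninhibited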
# HNF4A DNA FP = change in binding of human HNF4A to DNA, primary screen, biochemical, fluorescence polarization, FITC-DNA; activity change, % at 10 µM; 360,000 compounds, 0.3% hits; 1 h; AID 1224865, 2016; in the data active means activity change above about 30%, passing the limit was not always enough;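 further: controls were the assay level and a saturating level of protein; the project sought stronger binding though the title names inhibitors; some compounds called inactive have numbers as strong as hits; positive values seem to mean higher polarization but the record does not say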
# LANA-H2B inh = blockers of LANA interaction with H2A/H2B – biochemical, FP readout, HTS, primary screen; Protein LANA1 (Human herpesvirus 8 type P (isolate GK18)), Q9QR71; cell-free LANA-H2A/H2B peptide, fluorescence polarization; inhibition, % (no concentration beside the values); 320,000 compounds, 0.6% hits; in the data active means inhibition mostly above about 10%, no sharp cut-off; inactive means mostly below about 6.7%;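 further: stock transfer was 7.5 nL into about 10 µL; 0% = median of vehicle wells and 100% = median of positive control wells; one replicate is shown; the record names a cut of 25% in any replicate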
# ALR inh = inhibitors of human ALR sulfhydryl oxidase, primary screen, biochemical, H2O2 detection, HRP-luminol luminescence, single point | FAD-linked sulfhydryl oxidase ALR (Homo sapiens), P55789 | purified ALR, DTT oxidation | inhibition, % (no concentration beside the values) | 290,000 compounds, 3.8% hits | AID 485317, 2010;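 active means mean and each replicate at 75% or more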;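 further: stock transfer was 7.5 nL into about 7.5 µL; 0% = neutral wells and 100% = wells with inactivated enzyme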
# Target sequence (P55789 whole entry, looked up): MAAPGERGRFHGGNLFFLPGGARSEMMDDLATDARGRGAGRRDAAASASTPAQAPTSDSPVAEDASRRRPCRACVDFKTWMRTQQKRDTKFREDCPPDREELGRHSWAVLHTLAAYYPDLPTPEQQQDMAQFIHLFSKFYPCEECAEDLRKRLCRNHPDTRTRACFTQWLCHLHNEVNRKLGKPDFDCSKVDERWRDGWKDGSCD
# Ecoli growth = E. coli growth inhibition, primary screen, OD600; Escherichia coli growth, 23 h; stronger effect = lower value; OD600 absorbance (test concentration not listed); 330,000 compounds, 0.21% hits;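 active means OD600 absorbance below the run mean of sample wells minus 3.6 SD, in any replicate, cut at about 0.56 in these data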;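 further: stock transfer was 300 nL into about 60 µL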
# Beta2AR agonist = beta2AR agonists driving receptor internalization, primary screen, cell-based, FAP fluorogen, flow cytometry; Beta-2 adrenergic receptor (Homo sapiens), P07550; 340,000 compounds, 0.43% hits; response, % (concentration not given with the values); Am2.2-beta2AR cells; reference of the scale not given here;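 active means response above a set limit, near 3 SD of response in nonfluorescent compounds, cut at about 42% in these data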;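 further: stock transfer was 100 nL into about 11 µL; a reference agonist was the positive control; negative values mostly stem from fluorescent compounds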
# Target sequence (P07550 whole entry, looked up): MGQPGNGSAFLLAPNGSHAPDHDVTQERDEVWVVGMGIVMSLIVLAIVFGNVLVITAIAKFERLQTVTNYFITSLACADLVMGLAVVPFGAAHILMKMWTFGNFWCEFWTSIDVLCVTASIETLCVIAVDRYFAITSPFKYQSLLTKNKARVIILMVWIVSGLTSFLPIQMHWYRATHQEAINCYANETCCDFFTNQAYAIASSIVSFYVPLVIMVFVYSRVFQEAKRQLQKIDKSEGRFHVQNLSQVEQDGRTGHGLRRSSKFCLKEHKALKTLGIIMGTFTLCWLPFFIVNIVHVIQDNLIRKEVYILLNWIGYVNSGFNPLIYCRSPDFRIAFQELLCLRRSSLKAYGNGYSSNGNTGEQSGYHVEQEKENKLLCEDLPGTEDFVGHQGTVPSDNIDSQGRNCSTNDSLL
# * hit, by the source's call; i = inactive; · = no result given.
SMILES,FGF22 binding,UCH37 inh,HNF4A DNA FP,LANA-H2B inh,ALR inh,Ecoli growth,Beta2AR agonist
COc1ccc(S(=O)(=O)Nc2ccc3c(c2)C(=O)N([C@H](C)CO)C[C@H](C)[C@@H](CN(C)C(=O)Nc2ccc4c(c2)OCO4)O3)cc1,i,-0.4,1.9,-2.0,-16.2,·,-7.9
Cc1cc(C)c(C#N)c(SCC(=O)NC2CC2)n1,·,-0.3,2.5,2.4,-3.2,0.674,-9.7
CC1C/C(=N/Nc2ccc([N+](=O)[O-])cc2[N+](=O)[O-])CC(C)(C)C1 (stereo unspecified),·,·,-1.4,-3.2,-1.6,·,2.6
O=C(Nc1nc(-c2ccco2)c(-c2ccco2)s1)c1c(F)cccc1Cl,i,-2.5,5.2,-2.9,-2.5,0.665,-2.9
CC(C)c1onc(C(=O)Nc2cccc(O)c2)c1[N+](=O)[O-],i,2.6,-3.9,3.3,·,0.702,-2.9
CCc1ccc(/C=C2\SC(=S)N(CCCC(=O)Nc3ccc(C(=O)O)cc3)C2=O)cc1,i,·,-2.9,-4.4,-0.8,·,5.6
Cc1cc2c(=O)n(C)c(SCC(=O)Nc3cccc(F)c3)nc2s1,i,1.5,2.1,1.9,-1.8,0.643,-6.7
CC(=O)n1nc(-c2ccccc2)cc1-c1ccccc1,i,6.3,1.3,4.1,-8.5,0.661,5.0
C/C(=C\C(=O)c1ccc(Br)cc1)NCc1ccc(C)cc1,·,-1.0,3.8,-2.2,20.0,0.751,-1.9
CC1=C(C(=O)OCC(C)C)C23C(=O)c4ccccc4C2(O1)OC(N)=C3C#N (stereo unspecified),i,-0.4,-0.5,-6.5,11.6,0.734,-3.0
COCc1c(C(=O)N2CCN(Cc3nc4ccccc4s3)CC2)oc2ccccc12,i,0.4,1.9,-0.3,-1.5,0.672,-5.7
Cc1ccnc(NC(=O)CCCOc2ccccc2)c1,i,·,-0.7,-2.7,-1.8,·,-2.3
CC(=O)NC12CC3CC(C1)CC(C(=O)OCC(=O)Nc1ncc(Cl)c(C)c1Cl)(C3)C2,·,-3.5,-7.8,1.3,-49.7,0.66,6.5
CC(C)C(=O)Nc1nnc(S(=O)(=O)N2CCCCCC2)s1,i,2.3,-0.3,6.2,·,0.753,-5.5
CC1CCC(=NNS(=O)(=O)c2ccc([N+](=O)[O-])cc2)CC1 (stereo unspecified),i,3.2,1.7,·,·,0.663,-6.5

# Results in UCH37 inh and LANA-H2B inh, for some of the entries so far:
molecule | UCH37 inh | LANA-H2B inh
CC(=O)n1nc(-c2ccccc2)cc1-c1ccccc1 | 6.3 | 4.1
C/C(=C\C(=O)c1ccc(Br)cc1)NCc1ccc(C)cc1 | -1.0 | -2.2
CC1=C(C(=O)OCC(C)C)C23C(=O)c4ccccc4C2(O1)OC(N)=C3C#N (stereo unspecified) | -0.4 | -6.5
COCc1c(C(=O)N2CCN(Cc3nc4ccccc4s3)CC2)oc2ccccc12 | 0.4 | -0.3

# Going on with the list.
SMILES,FGF22 binding,UCH37 inh,HNF4A DNA FP,LANA-H2B inh,ALR inh,Ecoli growth,Beta2AR agonist
O=C(O)c1cnn2cc(-c3[nH]ncc3[N+](=O)[O-])cnc12,i,7.1,-1.5,-3.3,0.8,0.717,-1.4
CCOc1cc(C(=O)Oc2cc(C)[nH]c(=O)c2[N+](=O)[O-])cc(OCC)c1OCC,i,4.6,3.1,-1.6,-0.6,0.725,2.2
COc1ccc(OCC(=O)Nc2ccc(S(=O)(=O)N3CCCCC3)cc2)cc1,i,4.9,-0.8,-1.1,-3.9,0.652,·
CCCN1C(=O)CC(Sc2ncccc2C(=O)O)C1=O (stereo unspecified),i,0.5,-3.7,1.9,-4.5,0.653,-3.8
CCCN(CCC)S(=O)(=O)c1cccc(-c2csc(C)n2)c1,i,4.6,3.2,-0.1,·,0.746,-4.0
O=c1[nH]c2cc(C(F)(F)F)ccc2n1-c1cc(C(F)(F)F)ccc1O,i,1.4,-1.9,-0.5,·,0.704,4.9
Nc1nonc1-n1nnc(C(=O)N/N=C/c2ccco2)c1-c1ccccc1,i,·,4.8,-2.2,-8.6,·,-18.1
N#Cc1cc(-c2ccccc2)oc1/N=C/c1ccccc1O,·,·,-5.6,7.1,97.3*,·,0.6
CCN(CC)C(=O)c1[nH]cnc1C(=O)Nc1ccc(Cl)cc1,i,-11.7,2.0,8.5,4.0,0.773,0.7
CCCS(=O)(=O)N1CCN(CCCc2ccccc2)CC1,i,1.2,-0.3,-1.4,-19.8,0.654,6.8
COc1cccc(C(C)=C2SC(=S)NC2=O)c1,i,·,3.1,·,·,·,-3.0
O=C(Nc1cc2cccc([N+](=O)[O-])c2oc1=O)c1cccs1,i,4.9,3.5,0.5,-1.7,0.669,-2.9
COc1ccc(NC(=O)/C(=C\c2ccncc2)NC(=O)c2ccccc2)cc1,·,2.3,-2.9,2.6,11.8,0.634,0.2
CC(OC(=O)c1cc(S(=O)(=O)Nc2ccc(F)cc2)ccc1Cl)C(=O)Nc1ccc2c(c1)OCCO2 (stereo unspecified),·,5.2,0.4,3.5,·,0.702,7.8
COc1cccc(Cn2nnc3c(=O)[nH]c(C4CCCN(C(=O)c5ccccc5Cl)C4)nc32)c1 (stereo unspecified),·,1.5,0.1,-3.8,-3.4,0.69,11.2
COc1ccc(CC(NC(C)=O)C(=O)NC2CCN(S(=O)(=O)c3ccccc3)CC2)c(OC)c1 (stereo unspecified),i,-0.9,2.0,-0.5,3.3,0.685,4.0
CCOc1ccc(NC(=O)CN(C)C(=O)c2cc(C)oc2C)cc1OCC,i,4.9,2.4,-8.8,-6.9,0.677,-3.1
CC(C)CN(C(=O)c1cccc(S(=O)(=O)N2CCN(C)CC2)c1)C1CCS(=O)(=O)C1 (stereo unspecified),i,0.8,-1.2,8.4,-1.7,0.702,4.6
CCOc1ccc(NC(=O)CN(C)C(=O)c2ccc(C)o2)cc1OCC,i,2.6,-0.5,2.1,-21.4,0.703,-11.3
Cc1nc2ccccc2c(=O)n1NC(=O)c1c(O)c2c(n(CC(C)C)c1=O)CCCC2,·,-1.6,4.3,1.4,-5.1,0.756,5.5
O=C(Nc1nc2ccccc2s1)c1cc(-c2ccccc2)nn1-c1ccccc1,i,-18.4,0.0,-6.2,4.6,0.703,0.5
CC1C/C(=C/c2ccccn2)C(=O)/C(=C/c2ccccn2)C1 (stereo unspecified),·,1.4,7.9,10.5,-15.7,·,17.4
O=C1Cc2ccccc2Sc2ccc(Cl)cc21,·,-2.9,-0.3,-2.0,-8.1,0.713,5.5
COc1ccc(NS(=O)(=O)c2cccc(C(=O)NC3CCC(O)CC3)c2)cc1 (stereo unspecified),i,-1.7,2.3,-8.3,-6.2,0.698,-0.2
CCC/C(=N/NC(=O)c1cccc(Cl)c1)c1ccccc1,·,·,-2.9,14.0*,4.6,·,-3.3
COc1ccc(NC(=O)CNC(=O)c2cccs2)cc1Cl,i,3.2,5.1,-1.3,·,0.691,2.0
CCN(c1ccccc1)S(=O)(=O)c1cc(C(=O)NCc2ccccn2)ccc1C,i,4.3,-0.9,·,·,0.678,0.3
COc1ccc(-c2nc(C(=O)NCC3CCCO3)cc3c2[nH]c2ccccc23)cc1 (stereo unspecified),i,-36.3,-0.1,-5.2,2.7,0.728,-6.4
CC(C)Cn1c2ccccc2c2cc(C(=O)O)ccc21,·,3.6,-0.8,-4.8,-16.1,0.711,6.5
c1ccc(CCN(Cc2ccccc2)C2CCN(C3CCCC3)CC2)cc1,·,-1.5,-3.1,0.4,-18.9,0.66,-2.1
O=c1c2ccccc2nc2n1CC/C2=C/N1CCN(c2cccc(C(F)(F)F)c2)CC1,·,-53.2,3.3,-6.1,1.7,0.696,6.2
COc1ccc(Cl)cc1Nc1nc(C)nc2c1nnn2Cc1ccccc1,i,i,0.7,-4.9,2.5,0.707,-2.5
COc1ccc(S(=O)(=O)Nc2ccc(S(=O)(=O)NCC3CCCO3)cc2)cc1 (stereo unspecified),i,0.4,-1.8,4.4,·,0.668,-3.0
Cc1cnc(C(=O)OCC(=O)c2ccc(C)s2)cn1,i,1.5,-1.1,2.6,9.2,0.649,3.0
CC1=C(C/C=C(\C)CCC[C@H](C)CCC[C@H](C)CCCC(C)C)C(=O)c2ccccc2C1=O,i,2.1,4.4,1.5,·,0.76,·
COc1ccc(NC(=O)N2CCN(c3cccc(C(F)(F)F)c3)CC2)cc1OC,·,0.0,-1.3,-2.3,-14.5,0.639,6.9
O=C(NCCCN1CCCC1=O)c1cccc(S(=O)(=O)N2CCCCC2)c1,i,5.3,0.5,-1.9,-0.6,0.653,-7.1
C=CCN(c1ccc(Cl)cc1)S(=O)(=O)c1cccc(C(=O)OCC(=O)N(C)C)c1,i,4.2,-0.5,-2.6,3.1,0.64,5.7
C[C@H]1CN=C(Nc2ccccc2)N1CCCC1CCCCC1,i,3.1,2.3,2.9,-0.1,·,0.4
Cc1cc2nc(-c3ccccc3)cc(=O)n2[nH]1,i,-143.6,-1.3,1.9,5.5,0.689,-10.1
Cc1c(CCO)c(=O)oc2n[nH]c(-c3ccccc3)c12,i,3.4,-5.3,-3.3,49.4,0.663,-0.1
CCOC(=O)NCC(C#CCN(CC)CC)N(CC)CC (stereo unspecified),·,0.3,-0.7,9.2,1.9,0.814,2.3
CCOC(=O)c1nn(-c2ccc(C)cc2)c(=O)cc1OCC(=O)N1CCN(c2ccccc2)CC1,·,0.8,0.4,·,·,0.685,15.0
CCOC(=O)c1c(C)oc2c1cc(NS(=O)(=O)c1ccc(C(=O)O)cc1)c1ccccc12,·,7.3,-1.4,-1.4,·,0.682,-1.4
COc1cc(CN2CCN(C(=O)CC(C)C)CC2)cc(OC)c1O,·,5.3,2.6,-3.4,-3.4,0.649,-1.2
Cc1cc(C)c(NC(=O)CSc2nc3ccc(NC(=O)CSc4nnnn4-c4ccccc4)cc3s2)c(C)c1,i,1.3,1.3,-4.6,-11.9,0.655,-0.2
CC(=O)c1ccc(OCCCC(=O)NNC(=O)c2ccccn2)cc1,i,3.2,-3.7,0.2,·,0.642,2.4
O=C(O)/C=C/c1cn(Cc2ccccc2)nc1-c1cccnc1,i,1.2,1.5,-0.8,-2.7,0.69,-1.9
O=C1CC/C=C\C[C@@H](CC(=O)N(CCO)Cc2ccccc2)C(=O)NC[C@@H](c2ccccc2)O1,i,0.6,-5.1,-4.4,-7.7,·,-5.8
CC(=O)Nc1c(S(=O)(=O)c2ccccc2)c2nc3ccccc3nc2n1Cc1ccccc1,·,-132.7,-1.7,1.8,-12.4,0.702,1.0
COCCNC(=O)C(c1ccc(F)cc1)N(CCOC)C(=O)CCC(=O)Nc1ccccn1 (stereo unspecified),i,-5.1,-0.5,-1.2,-65.1,0.666,6.5
Cc1cc2occ(CC(=O)O)c2cc1C,·,3.9,-4.0,6.3,-13.7,0.681,-4.9
O=C(CSc1nnc(CNc2ccc(F)cc2)n1CC1CCCO1)Nc1ccccc1 (stereo unspecified),·,-1.3,-1.1,3.6,-4.5,0.741,2.2
O=C(Nc1cc(Cl)ccc1N1CCOCC1)C1=COCCO1,i,2.2,0.7,2.5,-9.1,0.667,-12.4
Cc1ccccc1NC(=O)NCC1CCN(Cc2cccc(Cl)c2)CC1,i,3.6,-1.4,-1.1,2.2,0.617,6.5

# LANA-H2B inh, what is marked active above
mol | UCH37 inh | HNF4A DNA FP | LANA-H2B inh | ALR inh | Beta2AR agonist
CCC/C(=N/NC(=O)c1cccc(Cl)c1)c1ccccc1 | · | -2.9 | 14.0* | 4.6 | -3.3

# Only part of the results is shown; the hit share may differ from the screen's.
